Bioassay records from PubChem BioAssay.
Menin MLL FP FL = qHTS Assay for Inhibitors Targeting the Menin-MLL Interaction in MLL Related Leukemias: Competition With Fluorescein Labeled MLL-derived Peptide; AID 1766, 2009; FP activity change, % at 61.4 µM; Fluorescence polarization, fluorescein-MLL peptide displacement from menin; 290,000 tested, under 10 active; inconclusive = falling polarisation curve, or a change in total fluorescence; inactive = total fluorescence flat and polarisation flat or rising; no compound was filed as active; the % refers to the polarisation; negative = inhibition;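 also: % of control where 0% means no effect; inhibitors lower the polarisation; unlabelled MLL peptide was the positive control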
ClpP mod = qHTS Assay for Activators of ClpP. Potency, µM (series often up to 57.5 µM), for the others: top-dose activity change, negative = active. 1.9% of 340,000 active. purified B. subtilis ClpP, FRET peptide cleavage, 20 min; active = well fitted falling curve with a large enough effect; inconclusive = small, poorly fitted or top-dose-only effect; inactive = no such curve, though single readings can be large or run the other way; also: potency is read from the fitted curve at half-maximal effect; the source files actives as falling curves though it sought activators and does not explain the sign; nearly all actives have a fitted effect of over 65% in size; many hits overshoot -100%
Target sequence (P80244 whole entry, looked up): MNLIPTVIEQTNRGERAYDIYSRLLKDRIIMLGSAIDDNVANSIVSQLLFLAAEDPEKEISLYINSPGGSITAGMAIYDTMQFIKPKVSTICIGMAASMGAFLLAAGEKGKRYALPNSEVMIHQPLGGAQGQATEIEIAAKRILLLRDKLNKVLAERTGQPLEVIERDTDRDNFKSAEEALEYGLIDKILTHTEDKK
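FRET quenching reversal measured ClpP activation: 10 microg/mL B. subtilis ClpP at pH 8 with the FRET-FV decapeptide, read at 430 nm after 320 nm excitation. The 20-min minus 0-min signal was scaled between DMSO/no-enzyme wells and ADEP (5.8 microM final).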
Sfp inh = qHTS Assay for Inhibitors of Bacillus subtilis Sfp phosphopantetheinyl transferase (PPTase). 4'-phosphopantetheinyl transferase ffp (Bacillus subtilis), Q9F4F7. Biochemical Sfp PPTase activity, qHTS. Potency, µM, for inactives: max response, negative = inhibition, usual class: inhibitors. 3.5% of 310,000 active; active = well fitted inhibition curve with a large enough effect; inconclusive = small, poorly fitted or top-dose-only effect, or another doubt; inactive = no such curve, though single readings can be large or run the other way;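 also: the enzyme is Sfp with the accession as filed and its product quenches rhodamine fluorescence; potency is read from the fitted curve at half-maximal effect; 0% = enzyme reaction without inhibitor and -100% = no enzyme wells; top concentration of the series not given in the record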
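Sfp 15 nM + cpd, 15 min RT; start w/ rhodamine-CoA 5 uM, BHQ-2-YbbR 12.5 uM (final); 50 mM Hepes pH 7.6, 10 mM MgCl2, 0.01% NP-40, 0.01% BSA; read 525/598 nm at 0 and 30 min.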
TRPML1 ag = qHTS for Agonists of the Human Mucolipin Transient Receptor Potential 1 (TRPML1); TRPML1-expressing cells, Ca2+ dye fluorescence, FDSS; host cell line not named in the record; reference of the full effect not given here; activation, % (concentration not given with the values); 0.12% of 410,000 active; in the data active = activation above about 50%; inconclusive = about 30% to 50%; inactive = below about 30%; also: 0% is about no effect; the text of the record puts the active cut at 80%
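Agonist activity was taken from a 110 s kinetic Ca2+ dye read on the FDSS after pinning compounds onto TRPML1-DL cells. The cells were seeded at 1,500/well with Tet inducer, incubated about 16 h, then dye-loaded at room temperature.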
TRPML1 blocker = qHTS for Inhibitors of the Human Mucolipin Transient Receptor Potential 1 (TRPML1); Mucolipin-1 (Homo sapiens), Q9GZU1; TRPML1-inducible cells, Ca2+ dye fluorescence, FDSS; active compounds read low; inhibition of EC80 agonist-evoked calcium signal; activity change, negative = inhibition, % (no concentration beside the values); 0.02% of 390,000 active; in the data active means activity change below about -50%; inconclusive means about -30% to -50%; inactive means above about -30%;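 also: stimulus is agonist 54-4 at its EC80 concentration; % is scaled to controls: 0 for no effect and ±100 for the full control effect; compound concentration not given in the record; the text of the record puts the active cut at -80%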
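Tet-induced TRPML1-DL cells loaded with Ca8 no-wash calcium dye were read kinetically on FDSS. Compound addition was followed by EC80 agonist 54-4 (4 uM final); inhibition was read over 110 s.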
TRPV1 potentiator = HTS Assay for Compounds that Act as Potentiators of the Vanilloid Receptor 1 | potentiation, % at 8.33 µM | Transient receptor potential cation channel subfamily V member 1 (Homo sapiens), Q8NER1 | AID 540277, 2011 | 0.02% of 320,000 active | TRPV1-expressing cells, Fluo-8 calcium influx, capsaicin EC20 potentiation; host cell line not named in the record; control for the full effect not named in the record; active means potentiation above 80%; inconclusive means 30% to 80%; inactive means below 30%; also: 0% is about no effect
Target sequence (Q8NER1 whole entry, looked up): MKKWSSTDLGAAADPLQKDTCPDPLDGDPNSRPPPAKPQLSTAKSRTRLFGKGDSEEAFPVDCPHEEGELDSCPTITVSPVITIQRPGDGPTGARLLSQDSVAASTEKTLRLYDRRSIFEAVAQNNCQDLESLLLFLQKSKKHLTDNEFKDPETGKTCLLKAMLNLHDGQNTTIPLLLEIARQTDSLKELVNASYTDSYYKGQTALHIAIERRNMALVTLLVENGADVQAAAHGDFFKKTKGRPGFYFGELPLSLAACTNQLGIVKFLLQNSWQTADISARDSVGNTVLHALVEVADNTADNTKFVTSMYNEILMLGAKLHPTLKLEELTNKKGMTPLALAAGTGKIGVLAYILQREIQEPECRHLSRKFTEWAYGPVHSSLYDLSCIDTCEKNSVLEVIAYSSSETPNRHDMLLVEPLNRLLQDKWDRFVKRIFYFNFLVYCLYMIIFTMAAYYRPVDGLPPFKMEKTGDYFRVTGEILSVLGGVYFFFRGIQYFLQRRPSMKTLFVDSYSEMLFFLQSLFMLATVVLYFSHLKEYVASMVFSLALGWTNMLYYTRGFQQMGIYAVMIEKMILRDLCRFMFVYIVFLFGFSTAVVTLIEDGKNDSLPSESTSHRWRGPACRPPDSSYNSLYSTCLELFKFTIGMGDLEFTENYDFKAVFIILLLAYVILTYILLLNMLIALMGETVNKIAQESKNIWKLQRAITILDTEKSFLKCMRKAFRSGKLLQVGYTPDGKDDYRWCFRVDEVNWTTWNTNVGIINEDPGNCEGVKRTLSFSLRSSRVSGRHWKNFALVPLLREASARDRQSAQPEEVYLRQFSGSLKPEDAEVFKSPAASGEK
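TRPV1-expressing cells were cultured overnight at 35.5C and loaded with Fluo-8 calcium dye for 40 to 90 min at room temperature. After a 10 s baseline, compound was added and calcium influx was read kinetically for 3 min (ex 480/em 520 nm).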
PINK1 modulator = A Quantitative High throughput Screen to Identify Chemical Modulators of PINK1 Expression | PINK1 immunofluorescence, high-content cytometry, 24 h | Potency, µM (titrated, usually from 76.6 µM), inactives show at the top dose activation (PINK1 increase), most hits filed as activators | 0.2% of 410,000 active | AID 624263, 2012; active = well fitted activation curve with a large enough effect; inconclusive = small, poorly fitted or top-dose-only effect; inactive = flat fitted curve, though single readings scatter; cell line not stated here;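 also: potency is read from the fitted curve at half-maximal effect; % of control where 0% means no effect; nearly all actives have a fitted effect of over 65% in size; a mitochondrial uncoupler was the plate control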
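Stable cell line treated 24 h with compounds at 5 concentrations (CCCP controls), then fixed and immunostained for PINK1 plus nuclear and cell stains; PINK1 immunofluorescence quantified by laser-scanning microplate cytometry.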
Numbers without * were called inactive; u = inconclusive; x = no result given; & = joins results of further samples; [ ] = remark or other dose.

A first look, 9 compounds:
The line under a structure holds: Menin MLL FP FL	ClpP mod	Sfp inh	TRPML1 ag	TRPML1 blocker	TRPV1 potentiator	PINK1 modulator
COc1ccc(/C=N/N(C)C2=NS(=O)(=O)c3ccccc32)cc1OC
→ u	x	13%	-0.9	10	u	9.5%
CC(=O)Nc1cc2oc3ccccc3c2cc1[N+](=O)[O-]
→ x	-0.2%	x	-0.1	-18	x	4.3%
Cc1sc2c(c1C)CN(Cc1ccncc1)CN2C(=O)c1ccco1
→ u	-0.3%	-16%	0.3	-14	4	2.9%[38.3 µM]
O=C(c1ccco1)c1nc2c(n1O)CCCCC2
→ 1.0	1.3%	0%	0.8	-8	-2	-2.4%
CN1C(C)(C)CC(=NOC(=O)c2ccccc2)CC1(C)C
→ 2.1	0.9%	20%	0.7	-10	7	-0.9%
COc1ccc(F)cc1S(=O)(=O)N1CCN(Cc2ccc3c(c2)OCO3)CC1
→ 0.3	-6.1%	15%	0.7	-11	-7	-2.8%
O=C(CCNS(=O)(=O)c1ccccc1C(F)(F)F)Nc1ccncc1
→ x	-1.9%	x	1.2	-10	-1	-0.2%
Cc1sc2nc(SCC(=O)Nc3cccc(C(=O)O)c3)[nH]c(=O)c2c1C
→ x	-0.3%	x	-1.1	-11	25	2.8%
Cc1onc(-c2ccccc2Cl)c1C(=O)N1CCN(c2cccc(Cl)c2)CC1
→ 0.5	-0.5%	12%	-0.9	1	-9	12%

This part in full, repeating the preview:
The line under a structure holds: Menin MLL FP FL	ClpP mod	Sfp inh	TRPML1 ag	TRPML1 blocker	TRPV1 potentiator	PINK1 modulator
COc1ccc(/C=N/N(C)C2=NS(=O)(=O)c3ccccc32)cc1OC
→ u	x	13%	-0.9	10	u	9.5%
CC(=O)Nc1cc2oc3ccccc3c2cc1[N+](=O)[O-]
→ x	-0.2%	x	-0.1	-18	x	4.3%
Cc1sc2c(c1C)CN(Cc1ccncc1)CN2C(=O)c1ccco1
→ u	-0.3%	-16%	0.3	-14	4	2.9%[38.3 µM]
O=C(c1ccco1)c1nc2c(n1O)CCCCC2
→ 1.0	1.3%	0%	0.8	-8	-2	-2.4%
CN1C(C)(C)CC(=NOC(=O)c2ccccc2)CC1(C)C
→ 2.1	0.9%	20%	0.7	-10	7	-0.9%
COc1ccc(F)cc1S(=O)(=O)N1CCN(Cc2ccc3c(c2)OCO3)CC1
→ 0.3	-6.1%	15%	0.7	-11	-7	-2.8%
O=C(CCNS(=O)(=O)c1ccccc1C(F)(F)F)Nc1ccncc1
→ x	-1.9%	x	1.2	-10	-1	-0.2%
Cc1sc2nc(SCC(=O)Nc3cccc(C(=O)O)c3)[nH]c(=O)c2c1C
→ x	-0.3%	x	-1.1	-11	25	2.8%
Cc1onc(-c2ccccc2Cl)c1C(=O)N1CCN(c2cccc(Cl)c2)CC1
→ 0.5	-0.5%	12%	-0.9	1	-9	12%
CC(C)(C)NS(=O)(=O)c1cc2c3c(c1)CCN3C(=O)CC2
→ -2.6	1.9%	9%	0.0	-16	u	0.8%
ON1C(c2ccc(Cl)cc2Cl)N(O)[C@H]2CCCC[C@H]21 (stereo partly drawn)
→ 2.1	-0.7%	-22%	-0.4	-8	-1	-0.4%
CC(SCCc1ccccn1)C(=O)O (stereo not drawn)
→ 2.5	0.0%	-23%	2.3	-24	18	-0.3%
CC(C)NC(=O)C(c1ccc(F)cc1)N(Cc1ccco1)C(=O)CCC(=O)Nc1ccccn1 (stereo not drawn)
→ 9.3	x	11%	0.2	-28	5	1.1%
COc1ccc(S(=O)(=O)N2CCCCC2)cc1NC(=O)Cn1c(=O)cnc2ccccc21
→ x	-2.4%	x	0.2	24	x	2.4%
O=C(NC(=S)NCC1CCCO1)c1ccccc1Br (stereo not drawn)
→ 4.4	-2.2%	3%	0.5	4	7	-1.3%
CN(CC(=O)Nc1ccc(F)c(Cl)c1)S(=O)(=O)c1ccc2c(c1)n(C)c(=O)c(=O)n2C
→ x	-9.2%	-3%	1.2	5	3	1.1%
Cc1cc(NC(=O)CSCC(=O)Nc2cc(C(F)(F)F)ccc2N2CCCCC2)no1
→ x	-3.4%	x	3.0	-9	x	u
OC(COc1ccc2c(c1)OCO2)CN1CCN(c2ccc(F)cc2)CC1 (stereo not drawn)
→ -2.5	0.1%	10%	0.3	-1	6	-0.6%
CCc1nnc(NS(=O)(=O)c2ccc(NC(=O)c3ccc(Cl)cc3)cc2)s1
→ 1.2	0.1%	17%	x	x	18	-0.1%
Cc1ccccc1NC(=O)c1cnn(-c2ccccc2)c1C
→ 0.6	0.0%	18%	0.3	1	-39	-1.1%

New compounds follow
The line under a structure holds: Menin MLL FP FL	ClpP mod	Sfp inh	TRPML1 ag	TRPML1 blocker	TRPV1 potentiator	PINK1 modulator
N=C1/C(=C/c2ccc(Br)o2)C(=O)N=C2SC(CC(=O)N3CCCC3)=NN12
→ u	2.2%	9%	1.4	2	3	3.7%
COc1cc(OC)cc(C(=O)NC(C(=O)NCc2ccccn2)C(C)C)c1 (stereo not drawn)
→ x	-4.0%	x	0.0	8	15	-0.8%
O=S(=O)(Cc1nnnn1-c1ccc(Br)cc1)c1ccccc1
→ x	-1.4%	x	-0.3	11	x	2.8%
O=C(c1ccc(OC2CCN(CCc3ccccc3)CC2)cc1)N1CCCC1
→ x	0.8%	15%	0.3	-15	-8	-1.8%
Fc1ccc(-c2nnc3sc(C4COc5ccccc5O4)nn23)cc1 (stereo not drawn)
→ 1.6	-0.7%	-8%	-0.2	-11	-10	1.8%[38.3 µM]
CCc1nc2ccc(C(=O)N3CCC(O)(Cc4ccccc4)CC3)cn2c1N(C)C(=O)Cc1ccccc1
→ x	-3.8%	x	0.1	x	x	0.9%
Cc1[nH]c2ccccc2c1CCN(Cc1cccnc1)C(=S)Nc1cccc(F)c1
→ -1.5	x	10%	0.8	22	u	-0.9%
COc1ccc(C23NCCN2C(=O)c2ccccc23)cc1 (stereo not drawn)
→ -7.6	x	6%	1.2	9	10	0.3%
O=C(Cc1cccc2ccccc12)N/N=C/C=C/c1cccc([N+](=O)[O-])c1
→ 2.0	0.6%	u	3.5	-5	19	12%
CCCCOC(=O)CSc1nnc(-c2ccccc2)o1
→ x	1.1%	x	-1.2	16	x	1.6%
CCC1CN(C(=O)N2CCC(C(=O)O)CC2)c2cc(C)ccc2O1 (stereo not drawn)
→ x	0.2%	x	2.3	-24	x	1.6%
Cc1cccc(-n2ncc3c(Nc4ccc(F)cc4)ncnc32)c1
→ 1.1	-8.3%	-6%	0.7	38	6	7.3%
CCCS(=O)(=O)NC(=O)C1(C)CCN(C(=O)c2ccc3ccccc3n2)C1 (stereo not drawn)
→ x	0.7%	x	-0.5	x	x	1.6%
C=CCN1c2ccccc2[C@]23C[C@@H](C(=O)OC)N(C(=O)c4cc(C)oc4C)C2=NC(C(=O)OC)=C(C(=O)OC)[C@H]13
→ -0.8[11.7 µM]	-3.5%	-15%&4%	-0.3	-2	-28	1.8%
CC(C)C1N(C(N)=S)N=CC1(C)C (stereo not drawn)
→ 3.9	2.1%	-5%	-0.1	34	-47	-0.9%
Cc1ccc(OCc2cc(C(=O)NCc3cnn(-c4cccc(F)c4)c3)no2)cn1
→ x	2.5%	5%	1.6	6	-1	1.8%
O=C(Nc1ccc(C(=O)O)cc1)/C(=C\c1ccc2c(c1)OCO2)NC(=O)c1ccc(Br)o1
→ 0.8	x	6%	2.1	-10	3	2.7%
Cc1cn(S(=O)(=O)c2ccc(Cl)cc2)c(C)n1
→ 1.8	-5.8%	-5%	0.9	6	0	-0.7%
Cc1ccccc1CS(=O)(=O)c1ncc(Cl)c(C(=O)Nc2ccc(F)cc2)n1
→ x	-0.4%	u	3.5	-11	-2	0.6%
NC1CCN(c2c(F)cc3c(=O)c(C(=O)O)cn(C4CC4)c3c2Cl)C1 (stereo not drawn)
→ -5.8	-11%	18%	-0.7	-10	4	-0.1%

New compounds follow.
The line under a structure holds: Menin MLL FP FL	ClpP mod	Sfp inh	TRPML1 ag	TRPML1 blocker	TRPV1 potentiator	PINK1 modulator
CCC(C(=O)NC1CCCC1)N(C(=O)Cn1nnc(-c2ccc(C)o2)n1)c1cccc(OC)c1 (stereo not drawn)
→ -1.5	-1.0%	15%	-1.5	14	-8	6.4%
CCOc1cc2[nH]c(=O)n(CCC(=O)NCCc3ccccc3)c(=O)c2cc1OCC
→ -1.3	u	-21%	-0.1	12	-5	1.1%
Cc1cccc(Nc2nc(N)nc(CN3CCN(C)CC3)n2)c1
→ 2.1	2.2%	1%	-0.2	-4	-4	12%[38.3 µM]
CN1CCN(S(=O)(=O)c2ccc(NC(=S)NC(=O)C3CCCC3)cc2)CC1
→ -1.5	x	0%	0.9	-10	3	1.1%
O=C1CCN(Cc2ccccc2)C=C1c1ccc2ccccc2c1
→ x	-3.0%	x	1.1	14	x	5.2%
COc1ccc(F)cc1-c1cc(C(=O)NCc2cc(C(F)(F)F)cc(C(F)(F)F)c2)[nH]n1
→ x	u	x	2.0	x	x	10%
CCCn1c(SCC(=O)NC)nnc1C(C)C
→ 4.3	-2.9%	25%	0.3	-7	0	-1.5%
C/C(=N/NC(=O)c1ccc(Cn2cccn2)o1)c1cccc(NC(=O)c2ccncc2)c1
→ 1.0	-1.6%	22%	0.6	17	0	1.0%
CCOc1nc(-c2ccccc2O)nc2ccccc12
→ 1.7	0.4%	-1%	1.3	3	1	1.5%[38.3 µM]
COc1ccc(CNC(=O)Cc2ccc(NC(=O)C3=C(C)OCCS3)cc2)cc1
→ x	0.0%	13%	1.4	22	9	3.7%
Cc1nn2c(-c3ccc(F)cc3)ccnc2c1Cl
→ 5.8	-18%	0%	-0.5	2	u	1.6%
O=C(CN(C1CCCCC1)S(=O)(=O)c1ccccc1)N1CCCC1
→ 6.8	0.3%	16%	-0.3	-15	-18	0.8%
